# Rango release inh = inhibition of RanGTP-driven Rango-importin beta dissociation | 0.071% of 340,000 active | Biochemical FRET Rango-importin beta, RanGTP-induced dissociation | AID 540253 | O95149+P62826 | Potency, µM (doses to about 46.1 µM), for inactives: at the top dose activity change, negative = inhibition; active means falling FRET ratio curve, often poorly fitted, with flat reads before Ran was added; inconclusive means other falling curves, or compound fluorescence or quenching; inactive means flat or rising ratio curve;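 further: potency means the concentration at half of the fitted maximal effect; % of control where 0% means no effect; nearly all actives have a fitted effect of over 45% in size; -100% = wells without RanGTP and RCC1; the record marks most hits as doubtful in a second field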
#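 Quantitative HTS using a FRET biosensor: 0.1 uM Rango, 0.25 uM importin beta, 0.6 uM Ran, 2 mM GTP, 0.2 uM RCC1 final, PBS with DTT, Tween-20 and BSA. Post-read taken 45 min after Ran addition.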
# Rango-impB inh = inhibitors of Rango-importin beta complex formation. Q14974. Rango CFP/YFP FRET sensor + importin beta, 45 min. Potency, µM (highest dose often 92.2 µM), for inactives: at the top dose inhibition of complex formation. 0.031% of 340,000 active. AID 540263; active = rising FRET ratio curve, often small or poorly fitted; inconclusive = mostly compound fluorescence or quenching in the first reads; inactive = flat curves in all reads;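 further: potency means the concentration at half of the fitted maximal effect; 0% = DMSO wells and 100% = buffer wells lacking importin beta; nearly all actives have a fitted effect of over 15% in size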
#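 FRET biosensor Rango (snurportin 1 IBB between N-terminal EYFP and C-terminal Cerulean), 50 nM in PBS/1 mM DTT/0.02% Tween-20/0.1% BSA, preincubated 5 min RT with compound; 0.125 microM importin beta added, 45 min RT, CFP/YFP FRET ratio read.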
# GLA inh pH 4.5 = inhibitors of human alpha-galactosidase A at pH 4.5 | purified enzyme, 4-MU-alpha-Gal fluorescence, pH 4.5 | activity change, negative = inhibition, % at 105 µM | 230,000 tested, under 10 active; inconclusive = small, poorly fitted or top-dose-only inhibition, or a rising curve; inactive = flat fitted curve, though single readings scatter; no compound was filed as active;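 further: 0% = full activity with enzyme and -100% = basal without enzyme; dose as in the result columns while the protocol names 77 µM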
# Target sequence (P06280 whole entry, looked up): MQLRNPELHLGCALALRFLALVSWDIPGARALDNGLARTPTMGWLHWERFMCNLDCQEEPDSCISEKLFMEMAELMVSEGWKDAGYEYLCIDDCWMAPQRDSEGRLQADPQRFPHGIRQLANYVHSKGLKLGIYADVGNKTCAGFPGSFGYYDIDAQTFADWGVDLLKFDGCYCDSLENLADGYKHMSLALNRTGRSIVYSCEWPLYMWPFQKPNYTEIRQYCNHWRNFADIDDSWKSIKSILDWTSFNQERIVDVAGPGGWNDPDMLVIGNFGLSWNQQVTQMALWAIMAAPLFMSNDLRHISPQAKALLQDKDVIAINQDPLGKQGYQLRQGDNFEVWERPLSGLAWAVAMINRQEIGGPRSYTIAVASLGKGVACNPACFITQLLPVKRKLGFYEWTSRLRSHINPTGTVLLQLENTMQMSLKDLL
# miR-21 FLuc = miR-21 reporter, rising signal. HeLa miR-21 FLuc reporter, luciferase, 48 h. 340,000 tested, under 10 active. Potency, µM (titrated, usually from 38.3 µM), inactives show top-dose reporter change, positive = more light. AID 2288; active = well fitted rising curve with a large enough effect; inconclusive = small, poorly fitted or top-dose-only effect; inactive = no such curve, though single readings can be large or run the other way;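 further: % of control where 0% means no effect; miR-21 action dims this reporter so a rising signal means less miR-21 action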
#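 Using DMEM plus 10% FBS, HeLa miR-21-FLuc cells are incubated with test compounds (final up to about 40uM) for 48 hours; firefly luciferase signal is then imaged following reagent-mediated lysis.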
# Active calls of the source: *; ? = inconclusive; / = no result given; [ ] = remark or other dose.
Molecule	Rango release inh	Rango-impB inh	GLA inh pH 4.5	miR-21 FLuc
CN(c1ccccc1)S(=O)(=O)c1ccc(NC(=O)CC(=O)c2ccccc2)cc1	7%	-6.6%	/	/
CC(=O)OC1c2ccccc2C(=O)N1c1ccccc1C (centres undefined)	2%	-1.1%	2	-7%
Cc1nc2ccc(S(=O)(=O)N(C)CC(=O)NCc3ccc4c(c3)OCO4)cc2s1	3%	3.9%	-6	-13%
C/C(N)=C(/C#N)C(=O)COC(=O)CCC1CCCC1	0%	0.3%	2	0%
CCCCn1c(-c2ccccc2)nnc1-c1ccccc1	7%	-0.8%	-1	3%
NC1=NC(=O)C(CC(=O)c2ccc(Cl)cc2)S1 (centres undefined)	7%	2.2%	-6	-5%
Cc1ccc(C)c(OC(=O)c2cccnc2)c1	-16%	?	/	2%
O=C(c1cc(-c2ccc(Cl)c(Cl)c2)on1)N1CCCCCC1	8%	-2.0%	/	-19%
CC(C)CN(C(=O)COC(=O)CCCc1c[nH]c2ccccc12)c1c(N)n(Cc2ccccc2)c(=O)[nH]c1=O	-5%	-1.3%	/	0%
COC(=O)CN1C(=O)C(O)(CC(=O)c2ccccc2)c2ccccc21 (centres undefined)	3%	1.2%	8	-5%
Nc1ccc(OCc2ccccc2)cc1	25%	0.5%	-6	-9%
CCCCCCSc1ccc([C@H]2N[C@@](CC(C)C)(C(=O)OC)[C@H]3C(=O)N(CC)C(=O)[C@@H]23)cc1	-8%	6.0%	/	/
CCOC(=O)Cc1csc(NC(=O)CSc2ncnc3c2cnn3-c2ccccc2Cl)n1	-5%	-2.1%	-2	3%
COc1ccccc1NC(=O)C[n+]1ccccc1C	-5%	-0.2%	/	-4%
Cc1nn(Cc2ccc(F)cc2)c(C)c1NC(=O)c1nn(C)cc1Cl	-11%	-1.5%	0	-5%
COc1ccc(OCc2cccc(C(=O)Nc3ccc(CN4CCCCC4)cc3)c2)cc1	1%	-0.3%	-11	-71%
COc1ccc([C@H]2CC(=O)C=C(/C=C/c3ccc(Cl)cc3)C2)cc1	-10%	-1.0%	/	/
CCOC(=O)C1CCCCN1C(=O)c1ccc2nc(Cc3ccc(OC)cc3)oc2c1 (centres undefined)	13%	?	/	5%
CCOc1ccc(C(=O)N2CCN(c3ncccn3)CC2)cc1	1%	-4.5%	/	/
CCN(CC)CCOc1c(Br)ccc2c1sc1nc3n(c(=O)c12)CCC3	-1%	-0.1%	-3	11%
C=CCN1CCOc2ccc(C)cc2S1(=O)=O	0%	0.1%	/	/
CCOC(=O)c1c(C)[nH]c(C(=O)COC(=O)CCC(=O)c2ccc3c(c2)OCCO3)c1C	0%	3.7%	-7	-17%
CS(=O)(=O)CCC(C(=O)OCc1ccc(Cl)cc1)N1C(=O)c2ccccc2C1=O (centres undefined)	-21%	0.0%	-26	-3%
Cn1c(SCc2ccc(F)cc2)nnc1-c1ccncc1	12%	?	/	-1%
O=C(NN=C1CCCC1)c1cccs1	-3%	-2.5%	4	-87%
O=C(NC1CCCCC1)N1CCN(c2ccccc2)CC1	2%	-1.9%	4	-20%
CC(C)(C)n1nc2c(c1NC(=O)c1ccccc1S(=O)(=O)C(F)F)CS(=O)(=O)C2	-25%	?	/	0%
O=[N+]([O-])c1nn(-c2ccc3c(c2)OCCO3)n(O)c1=Nc1ccccc1	8%	-2.0%	6	22%
CCN(CC)CC(O)COCCC12CC3CC(CC(C3)C1)C2 (centres undefined)	-2%	-0.7%	-1	-19%
Cn1c(SCC(=O)NCCN2C(=O)CSC2=O)nnc1-c1ccccc1	7%	-0.8%	-4	-8%
Cc1ccc(/C=N/NC(=O)c2nnn(-c3nonc3N)c2CN(C)C)o1	4%	0.3%	/	8%
CCO[C@H]1OC(C(=O)N2CCCCCCC2)=C[C@@H](C2CCCCC2)[C@@H]1CCCO	?	-0.8%	-6	13%
CCN(CC)c1nc2n(c(=S)n1)CCS2	-6%	-3.7%	-9	-4%
COc1ccc(N(CC(=O)Nc2cccnc2)S(=O)(=O)c2ccc(C)cc2)cc1Cl	8%	1.6%	/	-24%
Cc1ccc(S(=O)(=O)N2CCN(C(=O)c3sccc3-c3ccccc3)CC2)cc1	1%	-0.8%	/	3%
CN(C)CCCNC(=O)c1ccc(=O)[nH]n1	-26%	-3.1%	7	-8%
O=C1c2ccccc2S(=O)(=O)N1Cc1ccccc1[N+](=O)[O-]	6%	4.7%	/	-5%
CC1CCc2c(sc3ncnc(NCCN4CCOCC4)c23)C1 (centres undefined)	34%	?	6	-16%
Cc1nc(SCC(=O)c2cc3ccccc3oc2=O)c(C#N)c(-c2ccccc2)c1C(=O)Nc1ccccc1	-10%	?	11	-5%
Cc1ccc(C(=O)OC(C)C(=O)NC2CCCCC2C)s1 (centres undefined)	5%	4.5%	/	/

# Following part
# Screens in order – Rango release inh, Rango-impB inh, GLA inh pH 4.5, miR-21 FLuc
> CSc1ncccc1C(=O)N1CCN(S(=O)(=O)c2ccc(F)cc2)CC1
  1%, 1.4%, /, 0%
> CSc1nc(O)c(Cc2ccccc2)c(=O)[nH]1
  10%, 3.8%, -27, -5%
> CC(c1ccccc1)n1c(N2CCN(C)CC2)nc2c1c(=O)[nH]c(=O)n2C (centres undefined)
  0%, -2.2%, /, -10%
> COc1ccc(CC(=O)Nc2nc3ccc(F)cc3s2)cc1S(=O)(=O)N1CCOCC1
  -11%, -3.4%, -1, -7%
> O=C(CCNC(=O)c1ccc(Br)cc1)NCCCc1ccccc1
  8%, 4.2%, /, /
> O=C(C(Sc1ccccc1)c1ccccc1)N1CCN(c2ccccc2F)CC1 (centres undefined)
  3%, 3.1%, -1, 0%
> CCCC1=NN(C(=O)CCc2ccccc2O)C(O)(C(F)(F)F)C1 (centres undefined)
  9%, 4.8%, -3, -6%
> CCOC(=O)c1ccccc1NC1c2ccccc2C(=O)N1c1ccc(C)cn1 (centres undefined)
  -12%, 0.9%, 2, -56%
> CCOc1ccc(N(C)S(=O)(=O)c2ccc3[nH]cc(C(=O)NCCCOC)c(=O)c3c2)cc1
  2%, 0.6%, /, 0%
> COc1ccc(CNC(=O)Cn2nc([N+](=O)[O-])c(Br)c2C)cc1
  -3%, -0.4%, /, -6%
> Cc1ccc(OCC(=O)Nc2cccc(S(=O)(=O)NC3=NCCCCC3)c2)cc1C
  6%, 0.3%, /, 0%
> COc1ccc(-c2csc3ncnc(NCCN4CCOCC4)c23)cc1
  1%, -3.9%, 5, 30%
> Cc1ccccc1C(=O)NC1CC2CCCC(C1)N2C(=O)Nc1ccccc1 (centres undefined)
  0%, 6.6%, /, -2%
> CCOC(=O)CN1C(=O)COc2ccc(C(C)(C)C)cc21
  -10%, 0.7%, 4, 0%
> CN(C)CCCNC(=S)N(CCCO)Cc1cc2cc3c(cc2[nH]c1=O)OCO3
  15%, 1.3%, /, -3%
> O=C1NC(=O)C(c2ccc(Cl)cc2Cl)N1 (centres undefined)
  1%, 0.3%, /, /
> O=C(O)c1cccc(NC(=S)N/N=C/c2ccccn2)c1
  25%, -3.4%, 4, -49%
> CCc1ccc(CN(C)C(=O)c2ccc3c(=O)n4c(nc3c2)CCC4)cc1
  7%, 4.1%, /, 0%
> CCc1ccc(NC(=O)[C@H](Cc2c[nH]c3ccccc23)NC(=O)[C@@H]2Cc3ccccc3CN2)cc1
  -5%, ?, /, 14%
> Cc1cccc(C)c1NC(=O)c1cn(-c2ccccc2)nc1-c1ccccc1
  10%, -0.1%, 4, 0%
> CCCCNC(=O)Cn1c(=O)c2c(ncn2CC)n(Cc2ccccc2)c1=O
  9%, 2.0%, /, -4%
> Cc1ccsc1C(=O)OCC(=O)c1cc(C)n(C)c1C
  -1%, 7.6%, /, /
> Cc1sc(NC(=O)CSC2=NCCS2)nc1-c1ccccc1
  -16%, 0.6%, -3, 5%
> CCCCCOC(=O)c1ccc(OC(=O)c2cncc(Br)c2)cc1
  1%, 2.3%, 4, -20%
> COc1ccc(-n2nnnc2SCC(=O)NCCc2ccccc2)cc1OC
  0%, 0.4%, -2, 0%
> C/C(=N\NC(=O)c1nn(C)c(C)c1Br)c1ccc(NC(=O)c2ccc(C)s2)cc1
  0%, -0.2%, 0, -52%
> COC(C[C@H]1O[C@H]1[C@@H](O)[C@@H](C)OCc1ccccc1)OC
  26%, -5.0%, -6, 1%
> O=c1[nH]c2cc([N+](=O)[O-])c(NCCO)c([N+](=O)[O-])c2[nH]1
  0%, 0.2%, 2, -29%
> CC1=C(C(=O)OC2CCCCC2)C(c2cccc([N+](=O)[O-])c2)NC(=O)N1 (centres undefined)
  5%, -0.2%, /, -8%
> CS(=O)(=O)c1ccc(Cl)c(NC(=O)COC(=O)c2cccc(C#N)c2)c1
  -14%, -3.6%, 1, -1%
> COC(=O)c1c(NC(=O)Cc2cccs2)sc(C)c1C
  -13%, -0.4%, -9, -12%
> O=S1(=O)C=C(Sc2nc3cc(Cl)ccc3o2)c2ccccc21
  -9%, 0.0%, -6, 27%
> CN(C)S(=O)(=O)c1ccc(N2CCCC2)c(C(=O)NC(c2ccccc2)c2ccccc2)c1
  -2%, -1.7%, -4, 0%
> COc1ccc(N2C(=O)CCC(C(=O)N3CCOCC3)C2c2ccc(F)cc2)cc1 (centres undefined)
  9%, -0.1%, -3, -8%
> N#C/C(=C/c1cccs1)c1ccccn1
  21%, -2.2%, -9, -51%
> COc1cnc(-c2ccccn2)nc1Sc1c(Cl)cccc1Cl
  -2%, 2.9%, 3, 19%
> C=CCn1c(C(CCCC)CC(O)COCC(C)C)n[nH]c1=S (centres undefined)
  0%, ?, 11, -3%
> COc1cc(/C=C(\NC(C)=O)C(=O)Nc2cccc(O)c2)ccc1OC(C)=O
  -17%, 0.5%, -11, -5%
> CCCn1nnnc1NCc1ccccc1C
  -9%, 0.0%, /, -1%
> COc1ccc(CNC(=O)CN(c2ccc(C(C)C)cc2)S(=O)(=O)c2c(C)noc2C)cc1
  ?, ?, /, 0%

# Overlap with the part before: 7 entries, followed by the next part.
# Screens in order – Rango release inh, Rango-impB inh, GLA inh pH 4.5, miR-21 FLuc
> COc1ccc(N2C(=O)CCC(C(=O)N3CCOCC3)C2c2ccc(F)cc2)cc1 (centres undefined)
  9%, -0.1%, -3, -8%
> N#C/C(=C/c1cccs1)c1ccccn1
  21%, -2.2%, -9, -51%
> COc1cnc(-c2ccccn2)nc1Sc1c(Cl)cccc1Cl
  -2%, 2.9%, 3, 19%
> C=CCn1c(C(CCCC)CC(O)COCC(C)C)n[nH]c1=S (centres undefined)
  0%, ?, 11, -3%
> COc1cc(/C=C(\NC(C)=O)C(=O)Nc2cccc(O)c2)ccc1OC(C)=O
  -17%, 0.5%, -11, -5%
> CCCn1nnnc1NCc1ccccc1C
  -9%, 0.0%, /, -1%
> COc1ccc(CNC(=O)CN(c2ccc(C(C)C)cc2)S(=O)(=O)c2c(C)noc2C)cc1
  ?, ?, /, 0%
> O=C(Nc1ccc(C2SCCS2)cc1)c1ccccc1
  -7%, 2.2%, 4, -55%
> O=C(c1ccc(Cl)c(Cl)c1)N1CCC(=O)N(C(CO)Cc2ccccc2)CC1 (centres undefined)
  0%, -0.4%, /, /
> Fc1ccc2nc3[nH]c4ccccc4c3nc2c1
  -20%, -4.7%, -13, -54%
> O=C(COC(=O)c1c(F)cccc1F)NCc1cccs1
  14%, -0.3%, /, /
> COc1ccc(CCNC(=O)C2CCCN2C(=O)Nc2ccc(F)cc2)cc1OC (centres undefined)
  -8%, -0.5%, /, 10%
> CCCCCCC(=O)NNC(=O)c1c(O)c2ccccc2n(CC)c1=O
  -4%, 0.0%, 1[21.1 µM], 0%
> CC(=O)Nc1ccc(S(=O)(=O)NCC2CCC(C(=O)NC3CCCCCC3)CC2)cc1 (centres undefined)
  11%, 3.7%, 7, -1%
> Cc1ccc(OCc2cc(C(=O)N3CCCC3)no2)cn1
  23%, 0.8%, /, -43%

# Bioassay records from PubChem BioAssay.

# A portion of the library; rates above refer to the full screens.
